Compound activity (PubChem)
Sfp PPTase inh: qHTS Assay for Inhibitors of Bacillus subtilis Sfp phosphopantetheinyl transferase (PPTase). Biochemical Sfp PPTase activity, qHTS. 310,000 compounds, 3.5% hits. 4'-phosphopantetheinyl transferase ffp (Bacillus subtilis), Q9F4F7. AID 1490, 2009. Potency, µM, without a hit: max response, negative = inhibition, usual class: inhibitors; active means well fitted inhibition curve with a large enough effect; inconclusive means small, poorly fitted or top-dose-only effect, or another doubt; inactive means no such curve, though single readings can be large or run the other way;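 further: the enzyme is Sfp with the accession as filed and its product quenches rhodamine fluorescence; potency means the concentration at half of the fitted maximal effect; 0% = enzyme reaction without inhibitor and -100% = no enzyme wells; top concentration of the series not given in the record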
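Buffer: 50 mM Hepes-Na pH 7.6, 10 mM MgCl2, 0.01% Nonidet P-40, 0.01% BSA. Enzyme 15 nM, pre-exposed to compound 15 min; substrates then added and fluorescence change tracked over 30 min.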
D2 ag: Beta-Arrestin HTS for Positive Allosteric Modulators of the Human D2 Dopamine Receptor: Agonists; activation, % (no concentration beside the values); DiscoveRx PathHunter D2 beta-arrestin, luminescence, 90 min; 100% = 57 uM dopamine signal; AID 624465, 2012; 360,000 compounds, 0.084% hits; in the data active = activation above about 40%; inconclusive = about 15% to 40%; inactive = below about 15%; further: compound concentration not given in the record; the text of the record calls up to 30% inactive
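DiscoveRx PathHunter D2 beta-arrestin cells (2,100/well) attached overnight, then compound-stimulated 90 min at 37 C in HBSS/10 mM HEPES/0.1% Tween-20 buffer; beta-galactosidase complementation read by luminescence after 1 h at ambient temperature. Dopamine 57 uM final (EC100) as control.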
Six1-Eya2 inh: qHTS Assay for Inhibitors of the Six1/Eya2 Interaction | AID 651725, 2012 | 360,000 compounds, 0.56% hits | AlphaScreen GST-Six1/His-Eya2 binding, biochemical; active compounds read low; control for the full effect not named in the record | Homeobox protein SIX1 (Homo sapiens) + Protein phosphatase EYA2 (Homo sapiens), … | activity change, % (no concentration beside the values); in the data active = activity change below about -65%; inconclusive = about -30% to -65%; inactive = above about -30%; further: on the % scale 0 is the no-effect control and ±100 the full control effect
Target sequence (O00167 whole entry, looked up): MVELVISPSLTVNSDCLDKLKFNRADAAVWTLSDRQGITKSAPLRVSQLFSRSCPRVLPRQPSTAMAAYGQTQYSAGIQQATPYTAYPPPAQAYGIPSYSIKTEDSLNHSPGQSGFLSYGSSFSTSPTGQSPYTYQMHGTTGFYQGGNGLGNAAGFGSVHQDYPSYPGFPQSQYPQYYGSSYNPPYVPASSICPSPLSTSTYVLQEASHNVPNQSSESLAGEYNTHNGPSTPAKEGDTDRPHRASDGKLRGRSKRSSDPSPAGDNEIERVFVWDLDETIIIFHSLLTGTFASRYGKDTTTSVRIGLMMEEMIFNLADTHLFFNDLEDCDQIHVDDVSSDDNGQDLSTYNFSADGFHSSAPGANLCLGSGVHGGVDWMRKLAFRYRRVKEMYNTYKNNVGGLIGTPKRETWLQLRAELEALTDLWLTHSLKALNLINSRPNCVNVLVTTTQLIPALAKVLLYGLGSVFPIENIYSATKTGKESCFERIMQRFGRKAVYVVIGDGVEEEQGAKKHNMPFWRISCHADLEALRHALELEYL
Target sequence (Q15475 whole entry, looked up): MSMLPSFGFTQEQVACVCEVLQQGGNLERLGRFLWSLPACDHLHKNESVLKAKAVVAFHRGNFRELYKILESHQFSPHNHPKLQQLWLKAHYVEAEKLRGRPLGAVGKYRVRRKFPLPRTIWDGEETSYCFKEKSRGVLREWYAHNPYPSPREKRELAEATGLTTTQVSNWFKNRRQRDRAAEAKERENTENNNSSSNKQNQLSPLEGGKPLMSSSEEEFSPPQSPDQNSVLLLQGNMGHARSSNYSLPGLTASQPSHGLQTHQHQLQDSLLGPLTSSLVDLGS
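GST-Six1 + His-Eya2 (5X stock: 250/500 nM); Tris pH 8.0, 300 mM NaCl, 0.05% BSA, 0.02% Tween 20; GSH donor/Ni acceptor beads; 1 h 37 °C dark; AlphaScreen readout.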
D2 potentiator: Beta-Arrestin HTS for Positive Allosteric Modulators of the Human D2 Dopamine Receptor: Potentiators | potentiation, % (concentration not given with the values) | 360,000 compounds, 0.23% hits | D(2) dopamine receptor (Homo sapiens), P14416 | DiscoveRx D2 beta-arrestin cells, luminescence, 90 min; 100% = 57 uM dopamine signal; active = potentiation of 50% or more; inconclusive = 30% to 50%; inactive = 30% or less;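 further: tested on top of an EC20 dose of dopamine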
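D2 cells co-treated with compound plus 50 nM dopamine (EC20) for 90 min at 37 deg C to detect potentiation. Beta-arrestin recruitment was read as enzyme-fragment luminescence after 1 h at ambient temperature. Full response was set by 57 uM dopamine.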
PINK1 expr mod: A Quantitative High throughput Screen to Identify Chemical Modulators of PINK1 Expression | PINK1 immunofluorescence, high-content cytometry, 24 h | Potency, µM (titrated, usually from 76.6 µM), for the others: at the top dose activation (PINK1 increase), usual class: activators | 410,000 compounds, 0.2% hits; active = well fitted activation curve with a large enough effect; inconclusive = small, poorly fitted or top-dose-only effect; inactive = flat fitted curve, though single readings scatter; cell line not stated here;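 further: potency means the concentration at half of the fitted maximal effect; % of control where 0% means no effect; nearly all actives have a fitted effect of over 65% in size; a mitochondrial uncoupler was the plate control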
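A stable cell line was treated with compounds at 5 concentrations for 24 hours, with CCCP as control. PINK1 levels and mitochondrial localization were measured by immunofluorescence with mitochondrial, cell and nuclear markers after fixation, read by laser-scanning cytometry.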
TRPV1 potentiator: HTS Assay for Compounds that Act as Potentiators of the Vanilloid Receptor 1. Transient receptor potential cation channel subfamily V member 1 (Homo sapiens), Q8NER1. TRPV1-expressing cells, Fluo-8 calcium influx, capsaicin EC20 potentiation; host cell line not named in the record; control for the full effect not named in the record. potentiation, % at 8.33 µM. 320,000 compounds, 0.02% hits; active means potentiation above 80%; inconclusive means 30% to 80%; inactive means below 30%; further: 0% is about no effect
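TRPV1-expressing cells were cultured overnight at 35.5C and loaded with Fluo-8 calcium dye for 40 to 90 min at room temperature. After a 10 s baseline, compound was added and calcium influx was read kinetically for 3 min (ex 480/em 520 nm).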
CtBP-E1A inh: qHTS Assay for Inhibitors of the CtBP/E1A Interaction; AID 651724, 2012; 340,000 compounds, 0.49% hits; AlphaScreen GST-E1A/His-CtBP binding, 1536-well; active compounds read low; control for the full effect not named in the record; activity change, % (test concentration not listed); CtBP / adenovirus E1A interaction (AlphaScreen); in the data active means activity change below about -65%; inconclusive means about -30% to -65%; inactive means above about -30%; further: on the % scale 0 is the no-effect control and ±100 the full control effect
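Protein mix (5X: 125 nM each GST-E1A, His-CtBP) was incubated with pinned compound 2 h at 37 deg C in dark, in 50 mM Tris pH 8.0 buffer with 300 mM NaCl. Glutathione donor and nickel acceptor beads followed; AlphaScreen signal read after 1 h.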
* = called active by the depositor; ? = inconclusive; . = not tested or not shown; & = joins results of further samples; [ ] = dose if it differs, or a comment.

SMILES	Sfp PPTase inh	D2 ag	Six1-Eya2 inh	D2 potentiator	PINK1 expr mod	TRPV1 potentiator	CtBP-E1A inh
O=C(NCCc1ccccc1)/C(=C\c1ccc([N+](=O)[O-])cc1)NC(=O)c1ccccc1	23%	-5.2	3	-3	8.1%	9	0
O=C1NCC(c2ccccc2)C1C(=O)N/N=C\c1ccc(-c2ccc(Cl)c(Cl)c2)o1 (stereo not drawn)	-7%	-4.2	-3	-2	-1.8%	13	-9
Cc1onc(-c2ccccc2)c1C(=O)OCC(=O)N1CCN(c2ccccc2)CC1	.	-1.5	-5	3	-1.5%	-3	-2
CC1(C)SC(=S)N(NC(=O)Nc2ccccc2)C1N(O)C(=O)Nc1ccccc1 (stereo not drawn)	13%	0.8	-5	-15	1.1%	9	-7
Cc1ccc(C(=O)NNC(=O)c2ccc(C)cc2)cc1	13%	-2.4	-1	-6	1.6%	-10	10
O=C(O)c1ccc(N/N=C/c2c[nH]c3ccccc23)cc1	-13%	?	-1	3	3.5%	5	.
N=C1C(c2ccccc2)=C(O)CN1NC(=O)c1ccccc1	6%	-4.1	10	1	-0.7%	-1	3
O=C(Cn1c(=O)cnc2ccccc21)NCC(=O)Nc1ccc(F)c(F)c1	.	-7.9	-3	-15	-0.9%	0	1
CCN(C(=O)COC(=O)C12CC3CC(CC(NC(C)=O)(C3)C1)C2)C1CCCCC1	.	-0.5	0	-15	0.8%	-1	10
O=C(CNC(=O)OCc1ccccc1)Nc1ccc(F)cc1	.	-8.4	7	-3	0.3%	-10	0
Cc1ccc(-c2noc(CN(C(=O)CCCN3C(=O)c4ccccc4C3=O)C(C)C)n2)cc1	.	1.4	8	-3	-0.2%	.	-3
O=C(COc1ccccc1Cl)c1ccc[nH]1	9%	5.3	-2	-1	-2.6%	11	2
O=C(NC1CCCCC1)c1ccccc1NC(=S)NC(=O)C1CCC1	2%	-2.7	8	-12	-1.1%	-2	9
C=CCNC(=S)N1CCN(c2ccccc2Cl)CC1	10%	2.1	-2	-8	-0.9%	-36	.
COc1ccc(N2CCN(C(=O)c3ccc(S(=O)(=O)N4CCCCCC4)cc3)CC2)cc1	.	8.9	-3	-14	-0.4%	28	0
Cc1csc(NS(=O)(=O)c2cccc([N+](=O)[O-])c2)n1	15%	1.8	4	-9	0.0%	-3	-9
CC(C)(C)c1ccc(-c2nc(C#N)c(N3CCC(C(N)=O)CC3)o2)cc1	-21%	-1.0	-10	3	-2.8%	-2	-12
CCOc1ccc(N2C(=O)CC(N(CCc3ccc(OC)cc3)C(=O)c3cccc(F)c3)C2=O)cc1 (stereo not drawn)	3%	-2.3	-10	-15	1.4%	0	-15
CCOc1ccc(S(=O)(=O)Nc2cccc(C(=O)N(C)Cc3cccc(OC)c3OC)c2)cc1	3%	1.2	-8	-7	-1.4%	7	3
C[C@@H](CO)NC(=O)c1ccc2c3n(nc2c1)-c1ccc(Cl)cc1CO3	-1%	-1.2	-11	-3	3.9%	-20	0
CCN1C(=O)C2(C(C(=O)c3ccc(C)o3)=C(O)C(=O)N2CCCN2CCOCC2)c2ccccc21 (stereo not drawn)	2.5µM*	2.9	4	2	-0.5%[38.3 µM]	20	6
Cc1ccc(NS(=O)(=O)c2cc(C(=O)Nc3cccc([N+](=O)[O-])c3)ccc2C)cc1	17%	-3.9	-4	-15	?	26	0
COc1ccc(CN2CCC(C(=O)c3ccc(F)cc3)CC2)cc1	13%	2.8	-16	-83	-1.3%	-17	.
Cc1ccc(C(=O)NNC(=O)c2cc(OCC(F)(F)F)ccc2OCC(F)(F)F)cc1	6%	-4.6	6	-15	-1.0%	6	5
Cn1c(=O)c2cc(S(=O)(=O)NC(C(=O)NC3CCCCC3)c3ccccc3)ccc2n(C)c1=O (stereo not drawn)	25%	-2.4	3	-8	-0.9%	0	6
CC(C)CC(=O)N[C@H](C(=O)N[C@H](C(=O)N[C@@H](CC(C)C)[C@@H](O)CC(=O)N[C@@H](C)C(=O)N[C@@H](CC(C)C)[C@@H](O)CC(=O)O)C(C)C)C(C)C	0%&5%&15%	-2.2	-12	-20	0.2%	1	6
C/C(=N\Nc1nc(N)cc(Cl)n1)c1ccc(Cl)c(Cl)c1	4%	3.0	2	-5	2.5%	14	-2
CCCCn1c(N)c(NCCC(C)C)c(=O)[nH]c1=O	2%	-7.7	3	3	3.1%	-9	-1
O=C(Nc1c(-c2ccc3c(c2)OCO3)[nH][nH]c1=O)c1ccccc1	.	-6.5	3	-19	?	.	-22
COC(=O)/C=C/c1ccc(-n2cncn2)cc1	19%	0.5	0	-2	-2.4%	0	2
C[C@@H]1CN([C@@H](C)CO)S(=O)(=O)c2ccc(Br)cc2O[C@H]1CN(C)C(=O)c1ccccc1	.	-7.1	16	-9	2.4%	.	-3
COc1ccc(C(=O)NC(C)CCc2ccccc2)c(O)c1 (stereo not drawn)	-2%	-2.9	11	-9	?	21	9
CCCC(=O)NC(c1ccco1)c1cc(Cl)c2cccnc2c1O (stereo not drawn)	-1%	-15	-83*	-53	-3.0%	12	-90*
CCN(CC)S(=O)(=O)c1ccc(C(=O)NCCN2C(=O)S/C(=C\c3cccnc3)C2=O)cc1	2%	-0.7	10	-8	-2.4%	2	.
COc1ccc(CN2C(=O)C(CC(=O)NC3CC3)CC(C(=O)N3CCOCC3)=C2C)cc1 (stereo not drawn)	.	2.0	26	1	2.4%	.	31
CN(C)c1ccc(C=NN2C(=O)CSC2=S)c(Cl)c1	.	8.8	?	-10	1.7%	.	-6
COc1cc(OC)cc(C(=O)N2CCN(c3ncccn3)CC2)c1	-29%	-1.7	4	6	-1.9%	-3	3
Nc1c(N(CCC2=CCCCC2)C(=O)Cc2ccccc2F)c(=O)[nH]c(=O)n1Cc1ccccc1	.	0.3	1	-12	2.5%	14	-2
CC(=O)C1C(c2ccc(OC(F)F)cc2)NC(=O)NC1(O)C(F)(F)F (stereo not drawn)	15%	0.0	-3	-4	0.4%	-10	5
CC(C)c1nccn1S(=O)(=O)c1cc([N+](=O)[O-])ccc1Cl	5%	2.9	-1	9	2.4%	2	-3
COc1cc(CCC(=O)Nc2ccncc2Cl)cc(OC)c1OC	13%	0.8	7	-3	1.5%	-8	3
CC(C)C[C@H](NC(=O)OC(C)(C)C)C(=O)N[C@@H](CO)[C@H](O)[C@@H]1C[C@@H]1C(=O)N1CCCC1	22%	-2.6	2	-8	0.9%	2	8
CC(=O)N1CCc2cc(S(=O)(=O)NCCC(=O)NC3CCCCCC3)ccc21	9%	2.6	1	6	0.4%	6	1
CC(C)(C)NC(=O)C(c1ccncc1)N(C(=O)Cn1nnc(-c2cccs2)n1)C1CCCCC1 (stereo not drawn)	0%	-4.8	3	-2	-0.8%	15	0
COc1ccc(C)cc1NC(=O)CSc1nc(=O)n(CCCN2CCOCC2)c2c1CCCC2	.	-0.6	-6	-44	4.0%	-1	-2
COc1ccc(N2C[C@H](CSC)[C@@H](CC(=O)Nc3ccc(Br)cc3)C2=O)cc1	.	-0.7	-4	.	6.7%	.	-4
Cc1ccc(C)c(Sc2ccc(NC(=O)CCl)cc2)c1	9%	2.7	20	6	-0.5%	-10	0
CCCCc1nc2n[nH]c(N)c2c2c1CCC2	7%	-5.1	-7	-12	1.8%	-4	-1
O=C(c1cc(-c2ccc(F)cc2)on1)N1CCCC1	10%	0.4	12	-3	4.3%	-6	4
Cc1ccc(NC(=O)NC(=O)N(C(C)C)S(=O)(=O)c2ccc(C)cc2)cc1	-12%	7.5	7	-8	1.1%	?	-13
C[C@H](CO)N1C[C@H](C)[C@@H](CN(C)S(=O)(=O)c2ccc(F)cc2)Oc2ccc(NC(=O)Cc3cn(C)c4ccccc34)cc2C1=O	.	0.1	-3	2	1.2%	.	-16
Cc1ccccc1NC(=O)C(=O)NC(C)CCc1ccccc1 (stereo not drawn)	6%	1.8	13	-13	5.4%	-21	10
CCc1ccc(CN2CC(C(=O)O)CC2=O)cc1 (stereo not drawn)	-5%	-3.5	-1	-11	-2.4%[38.3 µM]	-2	1
COc1ccc(Nc2cc(C)nc(N3CCN(C(=O)c4ccc5c(c4)OCO5)CC3)n2)cc1	.	4.4	-2	20	?	10	1
O=C(COC(=O)c1cncc(Br)c1)NC1CCCCCC1	6%	2.5	5	-1	-0.1%	-1	7
CC(Cc1cccs1)NC(=S)Nc1ccc(Cl)c(Cl)c1 (stereo not drawn)	?	-5.2	8	-5	?	-12	3
O=C1COc2ccc(C(=O)C[n+]3cccc(O)c3)cc2N1	7%	-2.7	-3	0	6.0%	0	1
Cc1c(Cl)c(C(F)F)nn1CC(=O)NC1C(=O)N2C(C(=O)O)=C(CSc3nnnn3C)CSC12 (stereo not drawn)	?	-3.4	-15	-9	2.4%	-5	11
O=C(NCC1CCCO1)c1cccc(NC(=O)c2cccs2)c1 (stereo not drawn)	-6%	-1.5	3	-13	0.1%	-3	-3
O=C(NCc1ccccn1)c1cn(-c2ccccc2)nc1-c1ccc(Cl)cc1	-25%	-1.1	2	-4	1.8%	-5	18
COc1ccc(N(CC(=O)NCCc2cccc(C)c2)S(=O)(=O)c2c(C)noc2C)cc1	9%	-4.6	-2	-2	3.4%&-0.6%	-3	.
